Screening data: PubChem BioAssay, National Center for Advancing Translational Sciences (NCATS)
gsp antagonist: qHTS for Antagonists of gsp, the Etiologic Mutation Responsible for Fibrous Dysplasia/McCune-Albright Syndrome: qHTS. gsp-mutant cells, cAMP HTRF, 30 min; control for the full effect not named in the record. Potency, µM (top dose mostly 76.9 µM), inactives show top-dose activity change, negative = inhibition, actives largely listed as inhibitors. hit rate 0.4% among 340,000. AID 624288, 2012; active = falling curve of any shape with a large fitted effect; inconclusive = falling curve, mostly with a smaller effect; inactive = flat or rising curve; cell line not stated here;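 further: intracellular cAMP measured with PDE inhibitor Ro 20-1724 present during compound exposure; potency means the concentration at half of the fitted maximal effect; on the % scale 0 is the no-effect control and ±100 the full control effect; nearly all actives have a fitted effect of over 65% in size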
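Measurement of cellular cAMP by homogeneous time-resolved fluorescence following a 30 min compound exposure at 37C. The PDE inhibitor […] was present throughout; the assay buffer was DPBS with 0.05% BSA and 0.005% Tween 20.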
Menin-MLL FL inh: qHTS Assay for Inhibitors Targeting the Menin-MLL Interaction in MLL Related Leukemias: Competition With Fluorescein Labeled MLL-derived Peptide; Fluorescence polarization, fluorescein-MLL peptide displacement from menin; FP activity change, % at 61.4 µM; 290,000 tested, under 10 active; AID 1766, 2009; inconclusive = falling polarisation curve, or a change in total fluorescence; inactive = total fluorescence flat and polarisation flat or rising; no compound was filed as active; the % refers to the polarisation; negative = inhibition;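 further: % of control where 0% means no effect; inhibitors lower the polarisation; unlabelled MLL peptide was the positive control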
gsp agonist: qHTS for Agonist of gsp, the Etiologic Mutation Responsible for Fibrous Dysplasia/McCune-Albright Syndrome: qHTS; gsp mutant cells, cAMP HTRF, 30 min; control for the full effect not named in the record; Potency, µM (top dose mostly 76.9 µM), for the others: top-dose activation (cAMP increase), actives largely listed as activators; hit rate 0.13% among 340,000; active = well fitted activation curve with a large enough effect; inconclusive = small, poorly fitted or top-dose-only effect, or another doubt; inactive = no such curve, though single readings can be large or run the other way; cell line not stated here;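 further: phosphodiesterase inhibitor Ro 20-1724 added with compounds to block cAMP breakdown; potency means the concentration at half of the fitted maximal effect; nearly all actives have a fitted effect of over 60% in size; about a fifth of the inactives were tested at one dose only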
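Cells in DMEM/10% FBS with G418 were pretreated with compounds in DMSO plus […] (300 uM stock) for 30 min at 37C. cAMP was measured by HTRF (cAMP-d2 plus anti-cAMP antibody-K) after 30 min at room temperature.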
Sfp inh: qHTS Assay for Inhibitors of Bacillus subtilis Sfp phosphopantetheinyl transferase (PPTase); 4'-phosphopantetheinyl transferase ffp (Bacillus subtilis), Q9F4F7; Biochemical Sfp PPTase activity, qHTS; Potency, µM, for inactives: max response, negative = inhibition, usual class: inhibitors; hit rate 3.5% among 310,000; AID 1490, 2009; active means well fitted inhibition curve with a large enough effect; inconclusive means small, poorly fitted or top-dose-only effect, or another doubt; inactive means no such curve, though single readings can be large or run the other way;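 further: the enzyme is Sfp with the accession as filed and its product quenches rhodamine fluorescence; potency means the concentration at half of the fitted maximal effect; 0% = enzyme reaction without inhibitor and -100% = no enzyme wells; top concentration of the series not given in the record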
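Fluorescence-quenching assay with 15 nM Sfp, 5 uM rhodamine-CoA and 12.5 uM BHQ-2-labelled ybbR peptide in pH 7.6 Hepes/MgCl2 buffer. Enzyme was pre-incubated with compound for 15 min at room temperature. Rate was taken from the 30-min fluorescence change (525/598 nm).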
ClpP mod: qHTS Assay for Activators of ClpP | purified B. subtilis ClpP, FRET peptide cleavage, 20 min | Potency, µM (highest dose often 57.5 µM), inactives show at the top dose activity change, negative = active | hit rate 1.9% among 340,000; active = well fitted falling curve with a large enough effect; inconclusive = small, poorly fitted or top-dose-only effect; inactive = no such curve, though single readings can be large or run the other way; further: potency means the concentration at half of the fitted maximal effect; the source files actives as falling curves though it sought activators and does not explain the sign; nearly all actives have a fitted effect of over 65% in size; many hits overshoot -100%
Target sequence (P80244 whole entry, looked up): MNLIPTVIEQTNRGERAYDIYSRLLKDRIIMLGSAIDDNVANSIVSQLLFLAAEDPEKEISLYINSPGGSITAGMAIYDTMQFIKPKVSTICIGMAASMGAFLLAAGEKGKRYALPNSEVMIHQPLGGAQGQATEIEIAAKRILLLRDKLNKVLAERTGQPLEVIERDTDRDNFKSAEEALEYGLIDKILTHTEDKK
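Buffer: 100 mM Tris/HCl pH8, 100 mM KCl, 0.05% low protease BSA, 2.5% glycerol, 0.01% Tween-20. ClpP 10 microg/mL final; 20 min RT; delta FRET normalized to ADEP and DMSO controls.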
PINK1 expr mod: A Quantitative High throughput Screen to Identify Chemical Modulators of PINK1 Expression | Potency, µM (series often up to 76.6 µM), for inactives: at the top dose activation (PINK1 increase), actives largely listed as activators | hit rate 0.2% among 410,000 | PINK1 immunofluorescence, high-content cytometry, 24 h; active = well fitted activation curve with a large enough effect; inconclusive = small, poorly fitted or top-dose-only effect; inactive = flat fitted curve, though single readings scatter; cell line not stated here;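 further: potency means the concentration at half of the fitted maximal effect; % of control where 0% means no effect; nearly all actives have a fitted effect of over 65% in size; a mitochondrial uncoupler was the plate control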
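Stable cell line, 250 cells/well, 12 h attachment; compounds pinned at 5 concentrations, 24 h; CCCP control. Fixed with nuclear dye, primary antibodies 12 h at 10 degrees C, secondary plus cell stain; laser-scanning cytometer read.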
D2 agonist: Beta-Arrestin HTS for Positive Allosteric Modulators of the Human D2 Dopamine Receptor: Agonists | D(2) dopamine receptor (Homo sapiens), P14416 | DiscoveRx PathHunter D2 beta-arrestin, luminescence, 90 min; 100% = 57 uM dopamine signal | activation, % (test concentration not listed) | hit rate 0.084% among 360,000 | AID 624465, 2012; in the data active = activation above about 40%; inconclusive = about 15% to 40%; inactive = below about 15%; further: compound concentration not given in the record; the text of the record calls up to 30% inactive
Target sequence (P14416 whole entry, looked up): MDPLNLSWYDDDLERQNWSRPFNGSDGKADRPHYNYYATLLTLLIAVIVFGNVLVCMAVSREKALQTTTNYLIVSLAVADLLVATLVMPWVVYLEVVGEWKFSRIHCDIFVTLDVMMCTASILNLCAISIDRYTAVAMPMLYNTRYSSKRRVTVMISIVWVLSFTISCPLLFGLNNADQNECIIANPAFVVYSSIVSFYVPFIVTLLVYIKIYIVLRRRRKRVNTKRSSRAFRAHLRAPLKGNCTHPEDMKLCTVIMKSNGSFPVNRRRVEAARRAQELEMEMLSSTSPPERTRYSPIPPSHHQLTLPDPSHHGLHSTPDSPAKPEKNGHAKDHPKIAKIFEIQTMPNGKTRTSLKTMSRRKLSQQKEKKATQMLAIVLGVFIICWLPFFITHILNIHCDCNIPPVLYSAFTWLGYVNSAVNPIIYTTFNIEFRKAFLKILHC
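Agonist mode: compounds alone added to overnight-plated D2 PathHunter cells for 90 min at 37 C, with 57 uM final dopamine (EC100) defining full response. Beta-arrestin recruitment detected by chemiluminescent reagent, read after 1 h at ambient temperature.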
An asterisk follows results filed as active; ? = inconclusive; . = no result given; & = joins results of further samples; [ ] = remark or other dose.

Sequence of screens – gsp antagonist | Menin-MLL FL inh | gsp agonist | Sfp inh | ClpP mod | PINK1 expr mod | D2 agonist
- CCOC(=O)C1=C(O)/C(=C\c2ccc(CNC(=O)C(=O)Nc3ccccc3)o2)N=C1C
    8% | ? | -33%[inhibitor] | 32µM* | 1.9% | -0.7% | 0.4
- CCn1ncc(CN2CCC(n3nccc3NC(=O)c3ccccc3Cl)CC2)c1C
    . | . | -77%[inhibitor] | . | 0.5% | -0.5% | -1.1
- Cc1c(C#N)c2ccccc2n1CC(=O)N1CCCC1
    -4% | -2.5 | 1% | 3% | -0.9% | -2.1% | -3.0
- COCCNC(=S)N1CCc2cc(OC)c(OC)cc2C1COc1ccc(C(C)C)cc1 (centres undefined)
    -16% | 4.4 | -18% | 3% | -1.6% | 3.7% | -2.0
- COc1cc(C(NC(C)=O)NC(C)=O)ccc1OCc1ccccc1
    2% | 2.8 | 2% | 24% | -0.6% | 2.2% | 4.1
- Cc1cccn2c(=O)c3cc(S(=O)(=O)c4ccccc4)c(=N)n(Cc4ccco4)c3nc12
    3% | -11 | 27% | 56µM* | -8.9% | -0.3% | 1.2
- Cc1ccc(/C=N/NC(=O)C2(O)c3ccccc3-c3ccccc32)o1
    -10% | 5.3 | ? | ? | -1.6% | -2.2% | 2.4
- Cc1onc(-c2ccccc2)c1C(=O)OCC(=O)NC(=O)c1ccccc1
    -7% | . | ? | . | -3.9% | 1.1% | -5.5
- O=C(c1ccc2c(=O)n3c(nc2c1)CCCCC3)N1CCN(c2ccc(Cl)cc2)CC1
    -4% | 2.4 | -42%[inhibitor] | 2% | -1.4% | -0.2% | 1.7
- Cc1cc(NC(=O)c2cc(-c3ccccn3)nc3c(Cl)cccc23)no1
    22% | -1.6 | 3% | -4% | -1.7% | 14% | -6.4
- Cc1ccccc1/C=C1\Oc2ccccc2C1=O
    2% | . | . | . | -1.3% | 7.1% | 7.4
- Cn1c(SCC(=O)NC2CCCC2)nc2c(c1=O)SCC2
    -5% | . | -26% | -4% | -3.0% | -0.6% | 0.3
- COCCNC(=O)C(OC(=O)c1ccco1)c1ccc(OC)cc1 (centres undefined)
    1% | . | -38%[inhibitor] | . | . | 2.9% | 0.5
- Cc1ccc(C)c2[nH]c(=O)c(CN(Cc3cccs3)C(=S)NCc3ccco3)cc12
    -1% | 5.0 | 4% | -17% | 0.6% | -0.6% | -0.3
- Cc1ccc(CN2CCN(/N=C/c3cccnc3)CC2)cc1
    11% | -1.6 | 0% | 14% | -1.0% | -2.2% | -3.1
- O=C(NCc1ccco1)C(c1ccc(F)cc1)N(C(=O)Cc1cccs1)c1cccnc1 (centres undefined)
    3% | 0.1 | -15% | -4% | . | -0.9% | -1.4
- COc1cc2c(cc1OC)C(C)N(C(=O)/C=C/c1cc(OC)c(OC)c(OC)c1)CC2 (centres undefined)
    4% | 0.4 | ? | 5% | ? | 11% | 7.6
- CC(=O)CC(=O)NC(=NC1CCCCC1)Nc1nc(C)cc(C)n1
    -24% | 4.1 | -41%[inhibitor] | 7% | -3.4% | 0.6% | -3.1
- CCn1c(CSc2nc(C)cc(C)n2)nnc1SCC(N)=O
    4% | -2.4 | -10% | 8% | . | 1.7% | -4.9
- O=C(CNC(=O)c1cccc(F)c1)OCC(=O)N1CCCc2ccccc21
    3% | 4.5 | -16% | -3% | -3.0% | 0.1% | -3.1
- CC1=NS(=O)(=O)NC(C)(C)C1
    9% | . | -5% | . | 1.2% | 1.9% | -0.2
- Oc1ccc(C[C@H]2CNC(=S)N2CC2CCCN2C[C@H](Cc2ccccc2)N2C[C@H](Cc3ccc(O)cc3)N(CC3CCCCCC3)C2=S)cc1 (some centres undefined)
    -1% | . | . | . | -3.3% | 0.2% | 5.2
- CCOC(=O)Cc1nnc(NC(=O)CSc2nnc3c4ccccc4n(C)c3n2)s1
    7% | 1.8 | ? | 2% | -2.6% | 2.3%[38.3 µM] | 1.8
- CN1CCN(C(=O)CCc2nc3ccccc3n2-c2ccccc2)CC1
    -5% | 4.5 | 5% | -12% | -2.6% | 1.6% | -2.3
- CC1CN(C(=O)COC(=O)c2ccc3ccccc3c2)CC(C)O1 (centres undefined)
    . | . | -5% | . | -15% | 0.3% | 0.8
- COc1ccc(OC)c(C2C3CN(C(C)C)CC=C3C(C#N)=C(N)C2(C#N)C#N)c1 (centres undefined)
    4% | ? | -16% | -1% | -6.5% | 40µM* | -6.1
- O=C(CC1NCCN(Cc2ccccc2)C1=O)Nc1ccc(Cl)cc1 (centres undefined)
    2% | 1.4 | 10%[15.4 µM] | 4% | . | -0.5% | -3.5
- Cc1ccc(C(=O)NC2CCS(=O)(=O)C2)cc1S(=O)(=O)N1CCOCC1 (centres undefined)
    8% | -5.9 | -25% | 0% | -1.1% | 27%[38.3 µM] | -2.4
- Cn1cc([N+](=O)[O-])c(C(=O)Nc2ccn(Cc3c(F)c(F)cc(F)c3F)n2)n1
    11% | 4.5 | ? | -6% | 0.5% | -0.1%[38.3 µM] | -3.5
- Cc1cccn2c(=O)c3cc(C(=O)NCCCN4CCCC4=O)n(C)c3nc12
    5% | -12 | 0% | -4% | 16µM* | -0.4%[38.3 µM] | 2.4

Random excerpt: 2 records from the list.
Sequence of screens – gsp antagonist | Menin-MLL FL inh | gsp agonist | Sfp inh | ClpP mod | PINK1 expr mod | D2 agonist
- Cc1ccccc1/C=C1\Oc2ccccc2C1=O
    2% | . | . | . | -1.3% | 7.1% | 7.4
- COCCNC(=O)C(OC(=O)c1ccco1)c1ccc(OC)cc1 (centres undefined)
    1% | . | -38%[inhibitor] | . | . | 2.9% | 0.5

The main list resumes; the 3 compounds before the break are reprinted first.
smiles | gsp antagonist | Menin-MLL FL inh | gsp agonist | Sfp inh | ClpP mod | PINK1 expr mod | D2 agonist
Cc1ccc(C(=O)NC2CCS(=O)(=O)C2)cc1S(=O)(=O)N1CCOCC1 (centres undefined) | 8% | -5.9 | -25% | 0% | -1.1% | 27%[38.3 µM] | -2.4
Cn1cc([N+](=O)[O-])c(C(=O)Nc2ccn(Cc3c(F)c(F)cc(F)c3F)n2)n1 | 11% | 4.5 | ? | -6% | 0.5% | -0.1%[38.3 µM] | -3.5
Cc1cccn2c(=O)c3cc(C(=O)NCCCN4CCCC4=O)n(C)c3nc12 | 5% | -12 | 0% | -4% | 16µM* | -0.4%[38.3 µM] | 2.4
O=C(Cc1ccccc1)NC(Nc1cccc2ccccc12)C(Cl)(Cl)Cl (centres undefined) | -20% | -0.4 | 0% | 22% | -16% | 7.8% | 0.2
COc1ccc(NC(=O)c2cc3ccccc3cc2OC)cc1 | -27% | 4.0 | -9%[15.4 µM] | 14% | -0.3% | 0.2% | -3.7
Fc1ccc(CNc2nc(-c3cccnc3)nc3ccccc23)cc1 | -7% | 13 | 6% | 2% | . | ? | 1.4
COc1ccc(S(=O)(=O)N2CCN(C(=O)N3CCOCC3)C2C)cc1 (centres undefined) | 7% | 1.8 | -7%[15.4 µM] | 2% | -0.7% | 2.7% | -5.8
CCOC(=O)CCNCc1ccc(OC)c(OC)c1 | 10% | 0.8 | ? | -2% | -1.0% | 0.6% | -2.8
COc1ccc(NC(=O)COC(=O)CNS(=O)(=O)c2ccc(F)c(F)c2F)cc1OC | 5% | -0.8 | 8%[15.4 µM] | 15% | . | 0.4% | -3.4
CCOc1ccc(S(=O)(=O)N2CCCC(C(=O)NCc3ccncc3)C2)cc1Cl (centres undefined) | -7% | -0.6 | ? | 11% | . | 1.3% | 10
O=C(NCc1ccc(-c2csnn2)cc1)C1CC1 | 2% | 2.7 | -48%[inhibitor] | 16% | . | 0.2% | 3.8
Nc1nnc(SCC(=O)Nc2ccc(Cl)c(C(=O)O)c2)s1 | 9% | 1.4 | 5%[15.4 µM] | -19% | . | 2.9% | -4.7
CCOc1c(Cl)cc(C(=O)Nc2ccccc2C(=O)O)cc1Cl | 5% | 6.7 | -3% | 3% | -3.0% | . | 1.4
O=C(CSc1nnc(CNc2cccc(C(F)(F)F)c2)n1Cc1ccco1)NCc1ccco1 | -1% | -1.2 | 30% | -10% | 1.3% | -1.8% | -1.4
CN(Cc1ccccc1)C(=O)COC(=O)CCC(=O)c1ccc(Cl)cc1 | -4% | . | 9% | . | -3.1% | -2.4% | 0.6
Cc1cccc(N=c2c([N+](=O)[O-])nn(-c3ccc(Cl)cc3)n2O)c1 | 13% | -7.1 | 20%[15.4 µM] | 14% | . | -0.3% | 11
CCOc1ccc(NC(=O)CSc2ccc(-c3cccnc3)nn2)cc1 | -14% | . | 6%[15.4 µM] | 3% | 1.9% | 2.2% | 3.5
Cc1noc(C)c1COc1ccc(C(=O)OCC(=O)N2CC3(C)CC2CC(C)(C)C3)cc1 (centres undefined) | -29% | 0.2 | -9% | -5% | -0.8% | -0.5% | -2.4
C=CCc1cc(Cl)ccc1OCCCn1ccnc1 | 0% | -0.9 | -4% | -17% | -0.2% | 0.0% | 2.4
N#Cc1nnn(-c2ccc(Cl)cc2)c1N | 9% | 1.8&0.1 | -5% | 5%&-1% | -1.1% | 0.9% | -3.0
Cc1cc2c(cc1S(=O)(=O)N1CCCC1)n(C)c(=O)c(=O)n2C | -2% | 2.0 | 15% | 27% | -15% | -1.0% | 1.0
